miR-21 reporter: qHTS Assay for Modulators of miRNAs and/orActivators of miR-21. Potency, µM (top dose mostly 38.3 µM), for inactives: at the top dose reporter change, positive = more light. 340,000 tested, under 10 active. HeLa miR-21 FLuc reporter, luciferase, 48 h; active = well fitted rising curve with a large enough effect; inconclusive = small, poorly fitted or top-dose-only effect; inactive = no such curve, though single readings can be large or run the other way;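 further: % of control where 0% means no effect; miR-21 action dims this reporter so a rising signal means less miR-21 action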
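Luminescence from a firefly luciferase reporter carrying a miR-21 binding site downstream, stably expressed under a CMV promoter in HeLa cells that make miR-21 endogenously, reports miRNA modulation after 48 h compound exposure up to approximately 40uM final.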
Rango release inh: qHTS Assay for Inhibitors of RanGTP induced Rango (Ran-regulated importin-beta cargo) - Importin beta complex dissociation; Snurportin-1 (Homo sapiens) + GTP-binding nuclear protein Ran (Homo sapiens) + Importin …; Biochemical FRET Rango-importin beta, RanGTP-induced dissociation; Potency, µM (doses to about 46.1 µM), inactives show top-dose activity change, negative = inhibition; 340,000 compounds, 0.071% hits; active means falling FRET ratio curve, often poorly fitted, with flat reads before Ran was added; inconclusive means other falling curves, or compound fluorescence or quenching; inactive means flat or rising ratio curve;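 further: potency means the concentration at half of the fitted maximal effect; % of control where 0% means no effect; nearly all actives have a fitted effect of over 45% in size; -100% = wells without RanGTP and RCC1; the record marks most hits as doubtful in a second field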
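Two FRET readings bracket the reaction: one 5 min after compound meets Rango–importin beta, another 45 min after RanGTP-RCC1 (0.6 uM Ran, 0.2 uM RCC1, 2 mM GTP) is added. Only the second defines inhibition.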
GLA inh pH 4.5: qHTS Assay for Inhibitors of Human alpha-Galactosidase at pH 4.5; Alpha-galactosidase A (Homo sapiens), P06280; purified enzyme, 4-MU-alpha-Gal fluorescence, pH 4.5; activity change, negative = inhibition, % at 105 µM; 230,000 tested, under 10 active; AID 1467, 2008; inconclusive = small, poorly fitted or top-dose-only inhibition, or a rising curve; inactive = flat fitted curve, though single readings scatter; no compound was filed as active;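 further: 0% = full activity with enzyme and -100% = basal without enzyme; dose as in the result columns while the protocol names 77 µM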
Target sequence (P06280 whole entry, looked up): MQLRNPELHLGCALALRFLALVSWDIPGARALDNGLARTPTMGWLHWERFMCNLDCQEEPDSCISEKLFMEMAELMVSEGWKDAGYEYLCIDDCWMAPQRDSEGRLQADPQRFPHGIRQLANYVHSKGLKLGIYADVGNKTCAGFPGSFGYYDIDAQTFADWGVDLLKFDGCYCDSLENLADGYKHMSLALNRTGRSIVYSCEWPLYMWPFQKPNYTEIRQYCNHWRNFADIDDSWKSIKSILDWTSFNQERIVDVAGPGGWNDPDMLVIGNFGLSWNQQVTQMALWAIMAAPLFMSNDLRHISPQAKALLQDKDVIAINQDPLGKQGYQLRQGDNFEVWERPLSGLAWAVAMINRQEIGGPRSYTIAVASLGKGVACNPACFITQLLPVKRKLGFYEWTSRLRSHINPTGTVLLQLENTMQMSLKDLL
Rango complex inh: qHTS Assay for Inhibitors of Rango (Ran-regulated importin-beta cargo) - Importin beta complex formation. Importin subunit beta-1 (Homo sapiens), Q14974. Rango CFP/YFP FRET sensor + importin beta, 45 min. Potency, µM (series often up to 92.2 µM), inactives show top-dose inhibition of complex formation. 340,000 compounds, 0.031% hits; active = rising FRET ratio curve, often small or poorly fitted; inconclusive = mostly compound fluorescence or quenching in the first reads; inactive = flat curves in all reads;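 further: potency means the concentration at half of the fitted maximal effect; 0% = DMSO wells and 100% = buffer wells lacking importin beta; nearly all actives have a fitted effect of over 15% in size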
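FRET biosensor Rango (snurportin 1 IBB between N-terminal EYFP and C-terminal Cerulean), 50 nM in PBS/1 mM DTT/0.02% Tween-20/0.1% BSA, preincubated 5 min RT with compound; 0.125 microM importin beta added, 45 min RT, CFP/YFP FRET ratio read.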
* marks the source's active call; other numbers are inactive results; ? = inconclusive; / = not tested or not shown; & = joins results of further samples; [ ] = remark or other dose.

1: Cc1ccc(-c2csc3nc(SCC(=O)Nc4ccc(Cl)c(C(=O)O)c4)[nH]c(=O)c23)cc1
2: c1ccc(-c2nnc3n2N=C(c2ccc4c(c2)OCO4)CS3)nc1
3: O=C(Nc1ccc(S(=O)(=O)Nc2nccc(C3Cc4ccccc4C(=O)O3)n2)cc1)c1ccccc1 (centres undefined)
4: CCOC(=O)c1[nH]c2ccc(OC)cc2c1N=CN(C)C
5: CN(C)S(=O)(=O)c1cccc(NC(=S)N/N=C/c2cccc(O)c2)c1
6: COC(=O)CCCC1=CC2=CC(=O)C(C)(OC(=O)c3cccs3)C(=O)C2=CN1c1ccccc1 (centres undefined)
7: O=C(NCc1ccccn1)c1ccc(Cl)c(S(=O)(=O)N2CCOCC2)c1
8: CC(=O)c1cccc(NC(=O)CN2C(=O)c3cccnc3Oc3ccc(Cl)cc32)c1
entry no. | 1 | 2 | 3 | 4 | 5 | 6 | 7 | 8
Rango complex inh | -0.3% | -1.2% | 2.4% | 7.5% | -1.4% | ? | 2.9% | 0.0%
GLA inh pH 4.5 | / | 8 | 7 | -11 | 3 | -1 | / | /
miR-21 reporter | 0% | -2% | -1% | -5% | 11% | / | -2% | 2%
Rango release inh | 0% | 14% | 4% | ? | 7% | -19% | 10% | 1%

9: CN(C)c1ccnc2sc(C(=O)c3ccc(Br)cc3)c(N)c12
10: Cc1nc2cc(NC(=O)Nc3ccccc3Cl)ccc2n1C
11: N#C/C(=C\c1ccc(F)cc1)C(=O)NC1CCS(=O)(=O)C1 (centres undefined)
12: CC(C(=O)NC1CCCC1)N(C(=O)c1snc(C(N)=O)c1N)c1ccc2c(c1)OCCO2 (centres undefined)
13: O=C(COc1ccc(-c2nnco2)cc1)N1CCOCC1
14: O=C(Cn1ccc(C(F)(F)F)n1)N/N=C/c1ccc(N2CCOCC2)cc1
15: Cc1ccc(OCC(=O)Nc2cnn(CCCC(=O)O)c2)c([N+](=O)[O-])c1
16: CCCOc1ccc(NC(=O)CC2C(=O)OCC3CCCCN32)cc1 (centres undefined)
entry no. | 9 | 10 | 11 | 12 | 13 | 14 | 15 | 16
Rango complex inh | 2.3% | 0.6% | 1.5% | -4.2% | -4.5% | 0.8% | 0.8% | 2.6%
GLA inh pH 4.5 | -3 | 9 | / | -4 | / | 12 | -10 | /
miR-21 reporter | -10% | -1% | 3% | -11% | / | -5% | 0% | /
Rango release inh | ? | 6% | 0% | -26% | -5% | -5% | -6% | -15%

17: Cn1cc(CN2CCCC(CNS(=O)(=O)c3cccc4cccnc34)C2)cn1 (centres undefined)
18: Cn1ncc(C#N)c1NC(=O)C1CC(c2ccc(Cl)cc2)=NO1 (centres undefined)
19: COc1ccc(C(=O)NNC(=O)c2cc3ccccc3cc2O)cc1
20: Cc1ccc(S(=O)(=O)Nc2nc3ccc(S(=O)(=O)N4CCCC4)cc3s2)cc1
21: O=C(NCCc1ccccc1)C1CCCN1S(=O)(=O)c1ccc(Cl)cc1 (centres undefined)
22: Cc1ccc(C(=O)Nc2ccc(N3CCN(S(C)(=O)=O)CC3)cc2)cc1
23: Cc1c(Cl)cccc1NC(=S)NCCC(C)C
24: COCCNC(=O)Cn1c(=O)n(Cc2ccc(C(=O)NCCc3ccc(OC)c(OC)c3)cc2)c(=O)c2ccccc21
entry no. | 17 | 18 | 19 | 20 | 21 | 22 | 23 | 24
Rango complex inh | -0.9% | -0.1% | ? | -3.1% | -5.5% | 3.1% | 4.0% | -0.4%
GLA inh pH 4.5 | / | 9 | / | -3 | / | 6 | 3 | -1[21.1 µM]
miR-21 reporter | -4% | -3% | / | 1% | 0% | -9% | 1% | -4%&-5%
Rango release inh | 1% | -5% | ? | 0% | -5% | 1% | -7% | -13%

Two of the compounds above, with each value named.
17	Cn1cc(CN2CCCC(CNS(=O)(=O)c3cccc4cccnc34)C2)cn1 (centres undefined)
  Rango complex inh: -0.9%
  GLA inh pH 4.5: /
  miR-21 reporter: -4%
  Rango release inh: 1%

18	Cn1ncc(C#N)c1NC(=O)C1CC(c2ccc(Cl)cc2)=NO1 (centres undefined)
  Rango complex inh: -0.1%
  GLA inh pH 4.5: 9
  miR-21 reporter: -3%
  Rango release inh: -5%

Remaining list, next part
25: COc1ccc(OC)c(/C=C2\NC(=O)NC2=O)c1
26: COc1cc(OC)cc(-c2c(-c3cccs3)c3cc(-c4ccn[nH]4)ccc3n2C)c1
27: COc1ccc(-c2noc(C3CCCN(C(=O)c4cccc(F)c4)C3)n2)cc1 (centres undefined)
28: C[C@@H](NS(=O)(=O)c1cc(Cl)ccc1F)[C@H](O)c1ccccc1
29: CCCn1c(=O)c2[nH]c(-c3ccc(OCC(=O)Nc4ccc(C#N)cc4)cc3)nc2n(CCC)c1=O
30: CCS(=O)(=O)Nc1cccc(-c2ccc3nnc(-c4cccnc4)n3n2)c1
31: O=c1ccc2cc(S(=O)(=O)N3CCN(c4ccccc4F)CC3)ccc2o1
32: O=C(NC1CCCC1)c1cccc2c1C(=O)c1ccc(/C=C/c3ccccc3)cc1S2(=O)=O
entry no. | 25 | 26 | 27 | 28 | 29 | 30 | 31 | 32
Rango complex inh | ? | -9.2% | 0.7% | 0.4% | 3.1% | 1.9% | -0.8% | ?
GLA inh pH 4.5 | / | / | / | / | 0 | / | / | /
miR-21 reporter | 7% | / | 8% | / | / | 6% | 0% | /
Rango release inh | -15% | -28% | 6% | ? | ? | -6% | 0% | ?

33: COc1ccc(/C=N\NS(=O)(=O)c2ccc(Br)cc2)cc1COc1ccccc1[N+](=O)[O-]
34: COc1ccc(CN2CCC(C)CC2)cc1OCc1ccccc1
35: COc1ccc(C)cc1NC(=O)c1sc2nc(C)nc(N3CCOCC3)c2c1C
36: CNS(=O)(=O)c1cccc(C(=O)OCC(=O)c2cc(C)n(CC3CCCO3)c2C)c1 (centres undefined)
37: CC(Oc1ccccc1)C(=O)N1CCN=C1SCc1cccc(F)c1 (centres undefined)
38: O=C(CCCOc1ccccc1)NCCc1nc2ccccc2[nH]1
39: O=C(CN1C(=O)c2ccc(Br)cc2C1=O)NCC1CCCO1 (centres undefined)
40: O=c1c2c3c(sc2nc2n1CCCCC2)CCCCC3
entry no. | 33 | 34 | 35 | 36 | 37 | 38 | 39 | 40
Rango complex inh | -1.1% | -5.4% | -0.1% | 0.0% | ? | -5.4% | 1.7% | /
GLA inh pH 4.5 | -8 | / | / | / | -1 | 4 | / | -2
miR-21 reporter | -4% | 4% | 0% | / | -7% | -2% | 2% | -50%
Rango release inh | 0% | 7% | 25% | 3% | 20% | -7% | 11% | /

41: O=C(NCCS(=O)(=O)N1CCN(c2ccccc2F)CC1)c1ccc(Cl)cc1
42: CCCCc1nnc(NC(=O)CN2C(=O)NC3(CCCCC3)C2=O)s1
43: CC1(CCC(=O)N2CCCC(N3CCN(c4cccc(C(F)(F)F)c4)CC3)C2)CC1 (centres undefined)
44: O=C(CSc1nnnn1-c1ccccc1)NC(=O)Cc1ccccc1
45: CCOC(=O)C(CC)Sc1nnc2c3cc(C)ccc3n(C)c2n1 (centres undefined)
46: COc1ccc(N2CN=C3SCC(=O)N3C2)cc1
47: CCO[C@@H]1OC(C(=O)NC2CC2)=C[C@H](c2csc3ccccc23)[C@H]1CCCO
48: CC1(C)Cc2ccccc2-c2nnc(-c3ccco3)n21
entry no. | 41 | 42 | 43 | 44 | 45 | 46 | 47 | 48
Rango complex inh | -2.1% | -4.1% | 4.6% | ? | -3.1% | -4.4% | 0.2% | -0.7%
GLA inh pH 4.5 | / | / | / | / | -1 | -5 | 2 | -9
miR-21 reporter | / | -4% | 10% | / | -5% | -18% | 0% | 1%
Rango release inh | 16% | -13% | ? | 8% | -10% | -15% | 10% | 7%

49: CC(=O)N(OCc1ccc(OC(C)C)c(Cl)c1)C(C)=O
50: CC1CCN(C(=O)CCCl)c2ccccc21 (centres undefined)
51: CC1CCN(C(=O)CC#N)CC1
52: COc1ccc(C(O)(CCN2CCOCC2)c2ccccc2)cc1 (centres undefined)
53: Cc1cc(NC(=O)CCCSc2nc(-c3ccco3)cc(C(F)(F)F)n2)no1
54: Cn1cccc1Cc1nnc(SCC(=O)Nc2ccc3c(c2)OCCO3)n1-c1ccc(F)cc1
55: COc1cc(OC)cc(-c2c(-c3cccs3)c3cc(-c4ccc(OCc5ccccc5)cc4)ccc3n2C)c1
56: OCCN(CCO)c1cc2c3ccccc3ccc2c2ccccc12
entry no. | 49 | 50 | 51 | 52 | 53 | 54 | 55 | 56
Rango complex inh | -0.5% | -1.7% | -1.5% | 1.6% | 0.1% | -0.8% | 1.2% | -0.8%
GLA inh pH 4.5 | -2 | / | 4 | / | 1 | 4 | / | /
miR-21 reporter | -9% | / | -8% | -4% | -4% | -3% | / | /
Rango release inh | 6% | -4% | 13% | 7% | ? | -31% | -10% | 1%

An excerpt from above, limited to GLA inh pH 4.5 and miR-21 reporter:
No.	structure	GLA inh pH 4.5	miR-21 reporter
51	CC1CCN(C(=O)CC#N)CC1	4	-8%
37	CC(Oc1ccccc1)C(=O)N1CCN=C1SCc1cccc(F)c1 (centres undefined)	-1	-7%

Compounds listed so far that contain a furan ring, fused or not:
48: CC1(C)Cc2ccccc2-c2nnc(-c3ccco3)n21
53: Cc1cc(NC(=O)CCCSc2nc(-c3ccco3)cc(C(F)(F)F)n2)no1
entry no. | 48 | 53
Rango complex inh | -0.7% | 0.1%
GLA inh pH 4.5 | -9 | 1
miR-21 reporter | 1% | -4%
Rango release inh | 7% | ?

Additional records
57: O=C(CN1C(=O)CSc2ccccc21)N1CCc2ccccc21
58: COc1ccc(NC(=O)c2cc(=O)[nH]c(=O)[nH]2)cc1S(=O)(=O)Nc1ccccc1Cl
59: O=C(N/N=C/c1ccccc1[N+](=O)[O-])c1ccc2nc[nH]c2c1
60: CN(CC(=O)NNC(=O)CNC(=O)c1ccccc1F)S(=O)(=O)c1ccc(Cl)cc1
61: CCOc1ccc(OCCC(=O)OCC(=O)NC(C)c2ccccc2)cc1 (centres undefined)
62: O=C(CSc1nnc(NC(=O)c2c(F)cccc2F)s1)Nc1ccccc1F
63: Cc1ccc(N/C=C/C(=O)c2sc(-c3ccccc3)nc2C)cc1
64: NC(=O)C1CCN(C(=O)CSc2nc3ccccc3o2)CC1
entry no. | 57 | 58 | 59 | 60 | 61 | 62 | 63 | 64
Rango complex inh | 2.8% | 2.8% | -3.7% | 1.5% | 3.7% | 1.0% | ? | -3.6%
GLA inh pH 4.5 | 2 | 4 | -3 | / | / | / | 4 | -5
miR-21 reporter | -9% | -13% | -43% | / | / | -26% | -13% | -8%
Rango release inh | 4% | -10% | -4% | 23% | -13% | -6% | ? | 10%

65: O=C(CN1C2=NCCN2c2ccccc21)c1ccc(Br)cc1
66: COc1ccc(C2CC(c3cccc(OC)c3OC)n3nnnc3N2)cc1 (centres undefined)
67: O=C(COc1ccc(Cl)cc1)c1ccc(O)cc1O
68: COC(=O)C1(S(=O)(=O)c2ccc(C)cc2)CCOCC1
69: O=C(C1CCC(CNS(=O)(=O)c2cccs2)CC1)N1CCN(c2ccc(Cl)cc2)CC1 (centres undefined)
70: CC(=O)c1cc2c(cc1NC(=O)CCNC(=O)c1ccccc1Cl)OCO2
71: O=C(COC(=O)/C=C/c1ccc(F)cc1)NCc1cccs1
72: CC1CCCCN1S(=O)(=O)c1ccc(N(C(=O)c2cnccn2)C(C(=O)NC2CCCC2)c2cccs2)cc1 (centres undefined)
73: CCn1c(SCC(=O)N/N=C/C=C\c2ccco2)nc2ccccc21
entry no. | 65 | 66 | 67 | 68 | 69 | 70 | 71 | 72 | 73
Rango complex inh | 3.9% | ? | 0.5% | 2.5% | -0.1% | -0.8% | 4.6% | -2.0% | -1.4%
GLA inh pH 4.5 | 1 | 3 | -5 | -1 | / | 3 | / | -2 | 1
miR-21 reporter | -1% | -9% | -50% | -1% | ? | -7% | / | -4% | -3%
Rango release inh | -22% | 3% | -4% | 2% | 6% | 9% | 2% | 7% | -18%

Screening results deposited in PubChem by National Center for Advancing Translational Sciences (NCATS).

A portion of the library, so the mix of outcomes need not match the whole.
